RE007 growth inh: qHTS Assay for Inhibitors of the HIV-1 protein Vpr; hit rate 0.21% among 360,000; Potency, µM (doses to about 92.2 µM), without a hit: at the top dose activity change, negative = less growth; S. pombe RE007 Vpr strain, BacTiter-Glo ATP luminescence, 24 h; control for the full effect not named in the record; AID 651644, 2012; active = well fitted falling curve with a large enough effect; inconclusive = small, poorly fitted or top-dose-only effect; inactive = no such curve, though single readings can be large or run the other way;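 note: % is set by controls: 0 for no effect and ±100 for the full control effect; nearly all actives have a fitted effect of over 50% in size; the assay follows cell death caused by Vpr and the record does not say whether a fall means rescue or toxicity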
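Fission yeast strain RE007, carrying one chromosomally integrated HIV-1 vpr copy, was seeded at OD 0.01 in PMG+AL medium with 23 nL pinned compound. After 24 h at 30 °C and 99% humidity, viability was read by BacTiter-Glo luminescence.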
NS1 function inh: qHTS Assay for Inhibitors of Influenza NS1 Protein Function; hit rate 0.4% among 270,000; S. cerevisiae slowed by influenza A NS1, growth recovery by OD600; Potency, µM (highest dose often 46.1 µM), without a hit: at the top dose activity, positive = more growth; note: actives are rising curves; nearly all actives have a fitted effect of over 50% in size
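Recovery from NS1-induced slow growth read by OD600 in budding yeast switched to galactose assay medium (pH 6.0, -URA) at 1:100 dilution. Compound 23 nl per well; the matching strain lacking NS1 serves as control.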
SARS PLpro yeast: qHTS of Yeast-based Assay for SARS-CoV PLP | S. cerevisiae expressing SARS-CoV PLpro, growth rescue; control for the full effect not named in the record | Potency, µM (top dose mostly 32.9 µM), for inactives: at the highest dose activity, positive = growth rescue | hit rate 0.19% among 330,000; note: 0% is about no effect; nearly all actives have a fitted effect of over 55% in size; growth read by luminescence after 48 h
Cruzain noTriton: qHTS Assay for Promiscuous and Specific Inhibitors of Cruzain (without detergent); Cruzipain (Trypanosoma cruzi), P25779; purified cruzain, Z-FR-AMC fluorescence, no detergent; AID 1476, 2009; hit rate 2.3% among 200,000; Potency, µM, for the others: max response, negative = inhibition, usual class: inhibitors; active = well fitted curve in the direction sought with a large enough effect; inconclusive = small, poorly fitted or top-dose-only effect, or another doubt; inactive = no such curve, though single readings can be large; an effect the other way counts as inactive or inconclusive;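 note: plate controls were enzyme without inhibitor for no effect and buffer without enzyme for full effect; nearly all actives have a fitted effect of over 40% in size; top concentration of the series not given in the record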
Target sequence (P25779 123-467 limits assumed): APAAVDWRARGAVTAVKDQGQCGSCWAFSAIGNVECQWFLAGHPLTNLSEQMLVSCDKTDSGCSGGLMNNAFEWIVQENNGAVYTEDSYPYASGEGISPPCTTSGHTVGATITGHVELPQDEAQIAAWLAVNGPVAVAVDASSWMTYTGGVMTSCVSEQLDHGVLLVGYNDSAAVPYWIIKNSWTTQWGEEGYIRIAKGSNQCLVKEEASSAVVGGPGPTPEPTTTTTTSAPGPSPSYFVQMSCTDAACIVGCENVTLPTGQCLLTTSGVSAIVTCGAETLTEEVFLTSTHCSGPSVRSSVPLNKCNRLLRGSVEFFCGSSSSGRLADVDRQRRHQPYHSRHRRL
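Detergent-free condition (0.00005% Triton X-100) in acetate buffer pH 5.5 with DTT. 1.5 nM enzyme and compound were pre-mixed 15 min, then 2 uM Z-FR-AMC substrate added; reaction progress from fluorescence change between first and third reads (60 s).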
MARV entry inh: qHTS for inhibitors of binding or entry into cells for Marburg Virus. Marburg virus pseudotyped entry inhibition, cell reporter; control for the full effect not named in the record; about a third of the inactives were read at about 46 µM. Potency, µM (series often up to 37.8 µM), without a hit: at the top dose activity change, negative = inhibition, hits mostly inhibitors. hit rate 1.8% among 300,000. AID 540276, 2011; active = well fitted inhibition curve with a large enough effect; inconclusive = small, poorly fitted or top-dose-only effect, or effect the other way; inactive = flat fitted curve, though single readings scatter; tested in HEK293 cells; about a fifth of its hits are not listed in these tables; note: % is set by controls: 0 for no effect and ±100 for the full control effect; luciferase read-out
2A StopGo: High Throughput Screening for Foot and Mouth Disease Virus Antivirals. human cells with a luciferase reporter of 2A StopGo recoding; control for the full effect not named in the record. Potency, µM (series often up to 57.9 µM), for inactives: at the top dose signal change, negative = less light. hit rate 1.2% among 410,000. AID 1159524, 2015; active = well fitted falling curve with a large enough effect; inconclusive = small, poorly fitted or top-dose-only effect; inactive = no such curve, though single readings can be large or run the other way; tested in HEK293T cells; note: % is set by controls: 0 for no effect and ±100 for the full control effect; nearly all actives have a fitted effect of over 45% in size; luciferase light after 4 h
LASV entry inh: qHTS for Inhibitors of binding or entry into cells for Lassa Virus; Lassa virus pseudotype entry inhibition, cell reporter; control for the full effect not named in the record; AID 540256, 2011; hit rate 1.2% among 300,000; Potency, µM (series often up to 37.9 µM), for the others: at the top dose activity change, negative = inhibition, most hits filed as inhibitors; active means well fitted inhibition curve with a large enough effect; inconclusive means small, poorly fitted or top-dose-only effect, or effect the other way; inactive means flat fitted curve, though single readings scatter; tested in HEK293 cells; note: % is set by controls: 0 for no effect and ±100 for the full control effect; nearly all actives have a fitted effect of over 50% in size; luciferase read-out
Cruzain Triton: qHTS Assay for Promiscuous and Specific Inhibitors of Cruzain (with detergent); Cruzipain (Trypanosoma cruzi), P25779; purified cruzain, Z-FR-AMC fluorescence, 0.01% Triton; Potency, µM, for the others: max response, negative = inhibition, actives largely listed as inhibitors; hit rate 0.43% among 200,000; active = well fitted curve in the direction sought with a large enough effect; inconclusive = small, poorly fitted or top-dose-only effect, or another doubt; inactive = no such curve, though single readings can be large; an effect the other way counts as inactive or inconclusive;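 note: plate controls were neutral wells for no effect and buffer without enzyme for full effect; nearly all actives have a fitted effect of over 40% in size; top concentration of the series not given in the record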
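Purified cruzain (1.5 nM final) was preincubated with compounds for 15 min at room temperature in 100 mM sodium acetate pH 5.5, 5 mM DTT, 0.01% Triton X-100. Reaction started with 2 uM Z-FR-AMC; AMC fluorescence change over 60 s gave activity.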
* hit, by the source's call; & = joins results of further samples; [ ] = remark or other dose. Unless noted, calls come from the whole dose curve; as a rule, active means well fitted rising curve with a large enough effect; inconclusive means small, poorly fitted or top-dose-only effect; inactive means no such curve, though single readings can be large or run the other way. Potency is the fitted concentration of half-maximal effect.

For CCCCOc1ccc(N2CC(C(=O)NCc3ccco3)CC2=O)cc1 (stereo not given) the results were RE007 growth inh 10.4%, NS1 function inh inconclusive, SARS PLpro yeast -0.4%, MARV entry inh 21.2%[46.1 µM], 2A StopGo 0.0% and LASV entry inh -14.8%[46.1 µM].
`O=c1cc2c(nn1Cc1ccc(F)cc1)-c1ccccc1CC2` gave RE007 growth inh -5.9%, NS1 function inh -39.8%, SARS PLpro yeast -1.3% and 2A StopGo 3.4%.
Screening Cc1ccc(CN2CCNC(=O)C2CC(=O)N(C)C2CCOCC2)cc1 (stereo not given) returned RE007 growth inh -0.9%, NS1 function inh 6.2%, SARS PLpro yeast 4.8%, MARV entry inh 0.2%, 2A StopGo 5.0% and LASV entry inh 3.2%.
`COc1ccc(CCNC(=O)c2c(Nc3ccccc3C)sc(C(=O)c3ccccc3)c2N)cc1OC` gave Cruzain noTriton inconclusive, 2A StopGo 6.8%, LASV entry inh inconclusive and Cruzain Triton -2.1%.
Cn1c(=O)c2c(nc(SCC(=O)N3c4ccccc4CCc4ccccc43)n2C)n(C)c1=O was read as RE007 growth inh 1.7%, NS1 function inh -13.1%, SARS PLpro yeast -0.7%, Cruzain noTriton -9.2%, MARV entry inh inconclusive, 2A StopGo -24.4%, LASV entry inh -12.9% and Cruzain Triton 5.5%.
`CCOC(=O)C1CCN(S(=O)(=O)c2cn(C)c(C)n2)CC1` gave RE007 growth inh 1.3%, NS1 function inh 2.3%, SARS PLpro yeast -0.6%, MARV entry inh 4.6%[46.1 µM], 2A StopGo -2.9% and LASV entry inh -6.2%[46.1 µM].
`CC(NC(=O)c1ccccc1Br)c1ccc2c(c1)CCCC2` (stereo not given) gave RE007 growth inh -22.6%, NS1 function inh -68.3%, SARS PLpro yeast 0.7%, Cruzain noTriton -0.4%, MARV entry inh inconclusive, 2A StopGo -23.8%, LASV entry inh -18.9% and Cruzain Triton -6.3%.
CCOC(=O)c1cc(-c2ccccc2)n(CCCC(=O)Nc2ccc(C)cc2Cl)c1C was read as Cruzain noTriton 0.1%, 2A StopGo 0.0%, LASV entry inh 6.0%[46.1 µM] and Cruzain Triton -0.4%.
For CCN(CC)C(=O)CN1C(=O)COc2ccc(S(=O)(=O)N3CCOCC3)cc21 the results were Cruzain noTriton -2.7%, MARV entry inh 6.8%[46.1 µM], 2A StopGo -8.3%, LASV entry inh -0.5%[46.1 µM] and Cruzain Triton 1.6%.
Screening CC1=CN2C(=NC(=O)CC2(C)C(=O)N(CC(=O)NC2CCCC2)c2ccccc2C)C=C1 (stereo not given) returned RE007 growth inh 3.7%, NS1 function inh 5.5%, SARS PLpro yeast -3.9%, Cruzain noTriton 19.1%, MARV entry inh -0.9%, 2A StopGo 0.7%, LASV entry inh -14.4% and Cruzain Triton -24.0%.
COc1ccc(CC(=O)Nc2cccc(-c3nnc(-c4cccc(C)c4)o3)c2)cc1OC was read as RE007 growth inh 9.2%, NS1 function inh -94.6%, SARS PLpro yeast -4.8%, Cruzain noTriton inconclusive, MARV entry inh inconclusive, 2A StopGo 39.8µM*, LASV entry inh inconclusive and Cruzain Triton -3.0%.
`C/C(=N\NC(=O)CCC(=O)Nc1ccccc1)c1cccs1` gave RE007 growth inh 3.8%, NS1 function inh 8.7%, SARS PLpro yeast 15.6%, Cruzain noTriton -7.1%, MARV entry inh 27.5%, 2A StopGo -9.7%, LASV entry inh 11.3% and Cruzain Triton -4.2%.
Screening CN(C)S(=O)(=O)c1ccc(C(=O)N2CCC(c3nc4ccccc4o3)CC2)cc1 returned RE007 growth inh -19.6%, NS1 function inh -12.0%, SARS PLpro yeast 0.8%, Cruzain noTriton inconclusive, MARV entry inh 13.4%&13.4%, 2A StopGo inconclusive, LASV entry inh -16.0% and Cruzain Triton 7.1%.
O=C(O)C1CCN(C(=O)Cc2ccccc2)CC1 was read as RE007 growth inh -15.1%, NS1 function inh 7.1%, SARS PLpro yeast -0.3%, MARV entry inh inconclusive, 2A StopGo -11.0% and LASV entry inh 11.7%.
`Cc1ccc(S(=O)(=O)N2CCC(C(=O)NC3CC3)CC2)cc1` gave RE007 growth inh 1.3%, NS1 function inh 3.8%, SARS PLpro yeast 0.7%, MARV entry inh -7.8%[46.1 µM], 2A StopGo 1.1% and LASV entry inh -22.2%[46.1 µM].
Screening COC(=O)c1c(-c2cc(C)ccc2C)csc1NC(=O)C1CC=CCC1C(=O)O (stereo not given) returned RE007 growth inh -2.9%, NS1 function inh 12.4%, SARS PLpro yeast -0.2%, MARV entry inh -0.3%[46.1 µM], 2A StopGo -0.5% and LASV entry inh 4.4%.
N#C/C(=C/c1ccccc1Cl)c1nc2ccccc2c(=O)[nH]1 was read as Cruzain noTriton -15.6%, 2A StopGo -19.2%, LASV entry inh 20.8%[46.1 µM] and Cruzain Triton -4.0%.
`COc1ccccc1OC(C)C(=O)O` (stereo not given) gave RE007 growth inh 2.9%, NS1 function inh 0.9%, SARS PLpro yeast -0.5%, Cruzain noTriton 0.8%, MARV entry inh 7.5%, 2A StopGo -0.3%, LASV entry inh 14.2% and Cruzain Triton 5.0%.
CCOCCn1c(=NC(=O)/C=C/c2ccccc2Cl)sc2cc(NC(C)=O)ccc21 was read as RE007 growth inh -4.7%, NS1 function inh -0.9%, SARS PLpro yeast -6.4%, Cruzain noTriton 0.2%, MARV entry inh inconclusive, 2A StopGo -9.9%, LASV entry inh 7.5% and Cruzain Triton -0.2%.
O=C(CCC1COc2ccccc2O1)NCc1ccccc1 (stereo not given) was read as RE007 growth inh 6.8%, NS1 function inh -7.1%, SARS PLpro yeast 13.7%, Cruzain noTriton 4.8%, MARV entry inh 9.4%, 2A StopGo 2.4%, LASV entry inh inconclusive and Cruzain Triton -2.1%.
For O=S(=O)(/C=C/c1ccccc1)N1CCNCC1 the results were RE007 growth inh -5.0%, NS1 function inh 1.1%, SARS PLpro yeast -1.4%, MARV entry inh -7.7%[46.1 µM], 2A StopGo -14.2% and LASV entry inh 1.2%[46.1 µM].
CN(C)CCN(C(=O)c1ccc2ccccc2c1)c1nc2ccc(Br)cc2s1 was read as RE007 growth inh -7.2%, NS1 function inh -68.4%, SARS PLpro yeast -4.6% and 2A StopGo -1.4%.
Screening Cn1nnnc1NCc1ccc(Cl)c(Cl)c1 returned RE007 growth inh -27.3%, NS1 function inh 0.7%, SARS PLpro yeast 0.0%, MARV entry inh inconclusive and 2A StopGo 17.1%.
For Cn1c(SCC(=O)c2ccc3c(c2)Cc2ccccc2-3)nnc1-c1ccccc1 the results were RE007 growth inh -12.1%, NS1 function inh -22.8%, SARS PLpro yeast -9.3%, Cruzain noTriton 3.6%, MARV entry inh -3.0%, 2A StopGo inconclusive, LASV entry inh 6.8% and Cruzain Triton -2.5%.
For CCOc1ccc(N=Cc2ccc3ccccc3c2)cc1 the results were RE007 growth inh -6.2%, NS1 function inh -2.8%, SARS PLpro yeast 1.6%, MARV entry inh 1.2%, 2A StopGo 10.5% and LASV entry inh -1.4%.
Screening O=C(NC(=S)Nc1ccccc1CO)C1CCCCC1 returned RE007 growth inh 0.4%, SARS PLpro yeast -8.7%, MARV entry inh inconclusive, 2A StopGo 29.6% and LASV entry inh 2.5%[46.1 µM].
CCOc1cc(CNCCN2CCOCC2)ccc1OCc1ccccc1Cl was read as RE007 growth inh 6.4%, SARS PLpro yeast -0.7%, MARV entry inh inconclusive, 2A StopGo -25.8% and LASV entry inh inconclusive.
Screening Cc1cc2nc(-c3cccc(NC(=O)c4cccc5ccccc45)c3)oc2cc1C returned Cruzain noTriton -12.8%, 2A StopGo -0.2%, LASV entry inh 18.0%[46.1 µM] and Cruzain Triton -1.1%.
Screening COc1ccc(C(=O)n2nnc3ccccc32)cc1OC returned RE007 growth inh -6.7%, NS1 function inh 11.7%, SARS PLpro yeast -9.1%, Cruzain noTriton -26.1%, MARV entry inh inconclusive, 2A StopGo -23.1%, LASV entry inh -8.6% and Cruzain Triton -29.1%.
For CC(=O)Nc1ccc(S(=O)(=O)NCCN2CCNC2=O)cc1Cl the results were RE007 growth inh 10.5%, NS1 function inh 1.9%, SARS PLpro yeast 7.8% and 2A StopGo -2.6%.
Cc1cc(C)c(S(=O)(=O)Nc2nnc(C)s2)c(C)c1 was read as RE007 growth inh -7.0%, NS1 function inh -18.2%, SARS PLpro yeast 1.1%, Cruzain noTriton -2.3%, MARV entry inh 17.6%, 2A StopGo -21.9%, LASV entry inh -8.5% and Cruzain Triton 4.6%.
`COc1cc(/C=C/C(=O)O)cc(S(=O)(=O)Nc2ccc3nc(C)sc3c2)c1OC` gave RE007 growth inh -20.2%, NS1 function inh -3.8%, SARS PLpro yeast -1.1%, 2A StopGo -1.1% and LASV entry inh -0.2%.
Screening CC(C)(C)NC(=O)Cn1cnc([N+](=O)[O-])n1 returned RE007 growth inh -8.5%, NS1 function inh -9.7%, SARS PLpro yeast -7.5%, Cruzain noTriton 3.8%, MARV entry inh -10.6%, LASV entry inh 0.9% and Cruzain Triton 8.3%.
`CCC1C(O)=C(c2ccccn2)C(=N)N1c1ccccc1` (stereo not given) gave RE007 growth inh -4.6%, NS1 function inh -3.7%, SARS PLpro yeast -2.6%, Cruzain noTriton -15.3%, MARV entry inh -17.3%, LASV entry inh 1.3% and Cruzain Triton -0.5%.
For O=c1[nH]c(CN2CCNCC2)nc2ccccc12 the results were RE007 growth inh 1.2%, NS1 function inh 0.1%, SARS PLpro yeast 3.9%, Cruzain noTriton -2.9%, MARV entry inh 3.4%, 2A StopGo -21.0%, LASV entry inh 1.1% and Cruzain Triton 3.6%.

Assay outcomes as filed in PubChem.
